# Screens as filed in PubChem.
# CapD inh = Bacillus anthracis CapD inhibitors, primary screen, biochemical, fluorescence intensity | CapD gamma-glutamyltranspeptidase (Bacillus anthracis Ames Ancestor) | purified CapD enzyme, fluorescence intensity read-out; active compounds read low; some hits fall short of the stated cut | z-score (no concentration beside the values) | 140,000 compounds, 0.23% hits | AID 492967, 2010;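 active = z-score under -4 in either of two replicates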;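 note: stock transfer was 100 nL into about 40 µL; score is relative to mean and spread of the plate; one replicate is shown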
# AID504770 = growth inhibition of E. coli YBA685, primary screen, V. cholerae RctB inhibitors; E. coli YBA685 rctB-dependent plasmid, OD600 growth, 3 h; active compounds read low; 130,000 compounds, 0.27% hits; z-score (test concentration not listed);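 active = z-score under -2 on both plates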;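 note: wells of about 30 µL received 100 nL stock; score is relative to mean and SD of the test wells; the first replicate is given; strong numbers were not always called active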
# * = called active by the depositor; nt = not tested or not shown.
SMILES,CapD inh,AID504770
O=C(CCC(=O)Nc1nc(-c2cc3ccccc3oc2=O)cs1)NCc1ccc2c(c1)OCO2,2.53,nt
O=C(Nc1ccccc1)OCCN1CCN(c2ccc([N+](=O)[O-])cc2)CC1,-1.31,nt
O=C(COc1ccc2oc(-c3ccco3)cc(=O)c2c1)NC1CCCCC1,20.7,-0.15
CCOC(=O)c1cnc(N2CCCCC2)nc1C1CCN(C(=O)OC(C)(C)C)CC1,0.035,-0.75
CC(C)N(Cc1ccccc1)S(=O)(=O)c1ccc(-c2ccccn2)s1,0.7,0.45
C=Cn1ccnc1P(=S)(c1nccn1C=C)C1CCCCC1,nt,0.7
O=S(=O)(NC1Cc2ccccc2C1)c1ccc(Br)s1,-0.04,nt
CC(=O)N1CCc2cc(Br)cc(S(=O)(=O)CC(=O)Nc3ccccc3C)c21,-1.06,-0.3
CCc1cccc2c(C3=Nn4cnnc4SC3c3ccccc3)c[nH]c12 (stereo not drawn),nt,-0.25
O=C(/C=C/c1cccs1)OCC(=O)N1CCN(C(=O)c2ccco2)CC1,nt,0.25
Cc1ccc(S(=O)(=O)n2c(SCc3ccccc3)nc3ccccc32)cc1,-0.25,nt
COc1ccc(NC(=O)c2c3c(nc4ccccc24)CCCC3)cc1,0.34,0
NC(=O)c1oc2ccccc2c1NC(=O)CSc1ccc(F)cc1,nt,-1.2
CNc1c(NC(=O)Nc2cc(C)cc(C)c2)c(=O)oc2ccccc12,0.33,-0.15
CCCCOc1ccc(/C=C2/CCCC/C(=C/c3ccc(OCCCC)cc3)C2=O)cc1,0.035,nt
NS(=O)(=O)c1ccc(C(=O)OCc2ccccc2)cc1,0.195,0.25
O=C(O)c1ccc(NN=C2CCCCCC2)cc1,nt,-0.9
CSC(=NCc1cccs1)NC(=O)c1c(Cl)cccc1Cl,-0.51,-0.3
COc1ccc(-c2nn(-c3ccccc3)cc2C(=O)N(C)C)cc1OC,nt,1.05
CCOC(=O)c1sc2nc(CC(=O)OC)nc(Nc3cccc(C)c3)c2c1C,0.61,nt
O=C(NC1CC1)c1sc2ccccc2c1Cl,2.58,0.2
CC(=O)Nc1ccc(N2C(=O)C3C4c5ccccc5C(c5ccccc54)C3(C)C2=O)cc1 (stereo not drawn),-0.5,nt
O=C(NC1CCCCC1)c1ccc(-n2c(=S)[nH]c3ccccc3c2=O)cc1,-0.065,nt
OCc1sc2ccccc2c1Cl,nt,-1.65
O=C1CC(C(=O)OCc2ccccc2)N1 (stereo not drawn),0.575,0.15
Cc1ccc(C)c(N2CCN(C(=O)CNS(=O)(=O)c3cccs3)CC2)c1,-0.52,1.75
CCN1CCc2c(sc3[nH]c(=S)[nH]c(=S)c23)C1,15.8,-0.25
O=C(O)CN1C(=O)/C(=C\c2cccc([N+](=O)[O-])c2O)SC1=S,-2.96,nt
CCOC(=O)N1CCC(N=C2NS(=O)(=O)C(c3ccc(C)cc3)=C2C)CC1,-0.7,0.9
C=CCn1c(Cc2ccc(O)c(Cl)c2)n[nH]c1=S,-0.22,2.9
O=C1N(Cc2ccccc2F)c2ccccc2C12OCCS2 (stereo not drawn),-0.5,-1
N#Cc1cccc(NC(=O)NCC2CCCC(CNC(=O)Nc3cccc(C#N)c3)C2)c1 (stereo not drawn),nt,-0.35
CC(C)CSc1n[nH]c(N)n1,nt,0
Cn1cccc1/C=C1\CC(C(C)(C)C)C/C(=C\c2cccn2C)C1=O (stereo not drawn),-1.14,-0.05
COc1ccc(/C=C2\Oc3ccccc3N(CC(=O)N3CCC(C(N)=O)CC3)C2=O)cc1Br,94.1,-0.1
O=C(O)CSCCS(=O)(=O)c1ccccc1,-0.215,nt
CNC(=O)c1ccccc1S(=O)c1cccc2cccc(CO)c12 (stereo not drawn),-0.385,-0.55
CCN(CC)S(=O)(=O)c1ccc2nc(CSc3n[nH]c(N)n3)[nH]c2c1,nt,-0.3
COc1cccc(C2C(N3C(=O)c4ccccc4C3=O)C(=O)N2c2cccc(OC)c2)c1 (stereo not drawn),0.025,nt
CCOC(=O)c1c(-c2cccs2)csc1NC(=O)CN1CC(C)OC(C)C1 (stereo not drawn),nt,-0.65
COc1cccc(-c2nnc(SCC(=O)N3CCCC(C)C3)o2)c1 (stereo not drawn),-0.645,-0.8
CCn1c(SCCOc2ccccc2)nnc1-c1ccco1,nt,0.35
Cc1ncsc1C(=O)OC(C#N)c1cccc(Oc2ccccc2)c1 (stereo not drawn),0.495,0.65
CN=C(Nc1ccccc1OC)c1ccccc1,nt,0.05
CCCCC(=O)Nc1ccc(C(=O)Nc2cccnc2)cc1,0.2,-0.6

# Exported as tab-separated lines: two of the compounds above
molecule	CapD inh	AID504770
O=C(/C=C/c1cccs1)OCC(=O)N1CCN(C(=O)c2ccco2)CC1	nt	0.25
CNC(=O)c1ccccc1S(=O)c1cccc2cccc(CO)c12 (stereo not drawn)	-0.385	-0.55

# The list goes on:
SMILES,CapD inh,AID504770
O=C(Oc1cccnc1)c1c(F)cccc1F,-0.74,-0.35
O=C(O)COc1ccc2occ(C(=O)c3ccccc3)c2c1,0.31,-0.35
CC(NCc1cccs1)c1ccccc1 (stereo not drawn),nt,-0.1
Cc1cn2c(=O)c(C(=O)N3CCC(CCCC4CCN(C(=O)c5cnc6sc(C)cn6c5=O)CC4)CC3)cnc2s1,nt,0.7
CC1(C)CC(=O)C2=C(C1)N=C1c3ccccc3C(=O)C1C2c1cccs1 (stereo not drawn),-0.6,nt
COc1ccc(/C=C2\C(=O)N(c3ccccc3)N=C2C)cc1,0.25,-0.15
Clc1ccccc1Cn1c(C2CCCO2)nc2ccccc21 (stereo not drawn),0.495,0.05
O=C(Nc1cc2ccccc2s1)NC1CCN(Cc2ccccc2)CC1,0.075,1.1
N#Cc1c(Cl)cccc1Oc1ccc(S(=O)(=O)NCc2ccccc2)cc1,0.415,nt
O=C1Nc2ccccc2S/C1=C\C(=O)N1CCC2(CC1)OCCO2,-1.29,1.65
S=c1[nH]nc(-c2cccs2)n1C1CCc2ccccc21 (stereo not drawn),nt,0.2
CC1(C)COC2(OC1)C(=O)N(CN1CCOCC1)c1ccccc12,-0.125,nt
C=CCOc1ccc(CN2CCN(S(=O)(=O)c3cc(Br)c(Cl)s3)CC2)cc1,0.125,nt
O=C(COc1ccccc1Cl)N/N=C/c1ccc([N+](=O)[O-])cc1,-0.345,nt
C/S(=N/C(=O)Nc1ccc(Cl)cc1)c1ccc(OC(=O)c2ccc(Cl)cc2)cc1 (stereo not drawn),0.08,-0.6

# A draw from above in order of heavy-atom count, falling:
SMILES,CapD inh,AID504770
Cc1cn2c(=O)c(C(=O)N3CCC(CCCC4CCN(C(=O)c5cnc6sc(C)cn6c5=O)CC4)CC3)cnc2s1,nt,0.7
O=C(Nc1cc2ccccc2s1)NC1CCN(Cc2ccccc2)CC1,0.075,1.1
CC1(C)COC2(OC1)C(=O)N(CN1CCOCC1)c1ccccc12,-0.125,nt
O=C(COc1ccccc1Cl)N/N=C/c1ccc([N+](=O)[O-])cc1,-0.345,nt
Clc1ccccc1Cn1c(C2CCCO2)nc2ccccc21 (stereo not drawn),0.495,0.05
S=c1[nH]nc(-c2cccs2)n1C1CCc2ccccc21 (stereo not drawn),nt,0.2
O=C(Oc1cccnc1)c1c(F)cccc1F,-0.74,-0.35

# The list goes on.
SMILES,CapD inh,AID504770
Cc1ccc(C)n1-c1ccc(C(=O)NN)cc1,-0.17,nt
CCOC(=O)c1sc(N)c(C#N)c1COC(=O)c1ccc(S(=O)(=O)NCc2ccco2)cc1,nt,-0.5
CCCN1C(=O)/C(=C/C=C2/Sc3ccccc3N2CCO)SC1=S,-0.08,2.75
CN(C)c1ccc(C2NN(Cc3ccccc3)C3C(=O)N(C4CCCCC4)C(=O)C23)cc1 (stereo not drawn),12,-0.55
CCCCc1cc(C)c2[nH]c(=O)cc(C)c2c1,1.52,1.6
O=C(CNC(=S)N1CC2CC(C1)c1cccc(=O)n1C2)NCc1ccccc1 (stereo not drawn),1,0.3
CCNc1nc2[nH]c(=O)c3c(c2s1)OC(N)=C(C#N)C3c1cccs1 (stereo not drawn),0.635,-0.15
FC(F)(F)c1nc2ccccc2n2c(-c3ccc(Cl)cc3Cl)nnc12,7.97,nt
C/C(=N\N1CCN(C)CC1)c1ccc(OC(F)F)cc1,nt,-0.3
O=C1Nc2ccc(F)cc2C1O (stereo not drawn),1.5,nt
Nc1c2c(nn1-c1ccccc1)Oc1ccc(Cl)cc1C2,-0.105,0.1
CN(C)C(=O)CNC(=O)c1ccc(S(=O)(=O)N(C)C)cc1,nt,-0.65
CC(=O)NCCNS(=O)(=O)c1cccc2nsnc12,-0.885,nt
Cc1ccc(NC(=O)CN(C)C(=O)c2ccccn2)cc1,nt,0.45
O=C(c1cc(-c2ccccc2)c(N2CCOCC2)s1)N1CCC2(CC1)OCCO2,0.895,-0.85
CCCCCCCCCc1cnc(-c2ccc(OCCCCCCCC)cc2)nc1,0.29,nt
O=C1CC(N(O)c2ccccc2)C(=O)N1c1ccc(N2CCOCC2)cc1 (stereo not drawn),2.24,0.4
CCCCCCCCCCOc1ccc(OC(=O)c2ccc(OCCCCCC)cc2)cc1,-0.4,nt
Cc1onc(-c2c(Cl)cccc2Cl)c1C(=O)Nc1nnc(C2CC2)s1,-0.165,nt
O=C(Nc1ccccc1C(=O)N/N=C/c1ccccc1OCc1ccccc1)c1cccs1,-0.475,nt
CCCCOc1ccccc1C1C(C(=O)OCCOC)=C(C)NC2=C1C(=O)CC(c1ccc(OC)c(OC)c1)C2 (stereo not drawn),2.17,nt
Cc1cccc(N2C(=O)C(N3C(=O)c4ccccc4C3=O)C2c2ccc(F)cc2)c1 (stereo not drawn),-0.065,nt
CCC(=O)Nc1c(-c2ccc(F)cc2)nc2ccccn12,38.2,-1.2
CCc1noc(C)c1C(=O)OCC(=O)Nc1sc(C)c(C)c1C(=O)OC,nt,0.7
O=C(CSc1nc2ccc(Br)cc2c2nc3ccccc3n12)Nc1nccs1,-0.225,nt
c1ccc2sc(COCc3cn4ccccc4n3)nc2c1,0.18,-0.5
COc1ccc(C2Sc3ccccc3NC3=C2C(=O)c2ccccc23)cc1OC (stereo not drawn),-1.98,nt
C=C(C)CN1CCN(CC(O)Cn2c3ccccc3c3ccccc32)CC1 (stereo not drawn),11.7,nt
Cc1ccc(-c2nc(C#N)c(NCCCN(C)C)o2)cc1,3.15,0.2
C/C(=N\NC(=O)c1cc(Br)ccc1O)c1ccccn1,0.595,-0.2
O=C(O)COc1ccc(OC(F)(F)F)cc1,-0.13,nt
COCCn1c(C)cc(C(=O)CSc2nnc3ccccn23)c1C,-0.155,0.9
COc1cc2[nH]c(=S)n(N(C(C)=O)C(C)=O)c(=O)c2cc1OC,-12.9*,-0.75
c1ccc(Nc2nc3nonc3n3cnnc23)cc1,-0.245,nt
O=C(O)C1CCN(C(=O)c2cc(F)cc3c2OCOC3)CC1,0.88,1.5
COc1ccc(C2=C(N)C(=O)NC2=O)cc1OC,-2.52,0.45
Cc1ncc(S(=O)(=O)c2cccc(C(F)(F)F)c2)c(-c2cccnc2)n1,0.12,nt
Cc1ccccc1S(=O)(=O)c1c(Cl)nc(C)c(-c2ccccc2)c1C,-0.045,nt
O=C1Cc2cc(NS(=O)(=O)c3ccccc3)cc3c2N1CCC3,nt,-0.95
O=C1C2C3C=CC(C3)C2C(=O)N1CCNc1ncc(C(F)(F)F)cc1Cl (stereo not drawn),0.025,nt
O=S(=O)(NCC1COc2ccccc2O1)c1cccc(C(F)(F)F)c1 (stereo not drawn),-0.8,nt
COc1ccc(CCCc2nnc(SC(C)C(=O)Nc3nccs3)n2C)cc1 (stereo not drawn),nt,-0.8
CN(c1cccc(NC(=O)CN(c2ccccc2)S(C)(=O)=O)c1)S(C)(=O)=O,nt,0.95
Cc1cccc(NC(=S)N2CC(C)OC(C)C2)c1 (stereo not drawn),-0.175,nt
CC1C(=O)NN=C1C(=O)N/N=C\c1ccc(O)cc1O (stereo not drawn),-3.19,0.75
CC(C)c1nn2c(=O)cc(COC(=O)c3ccccc3NC(=O)c3ccco3)nc2s1,3.53,1.85
CC1=CCC2C(=O)N(c3ccc(S(N)(=O)=O)cc3)C(=O)C2C1 (stereo not drawn),0.515,-1.1
O=C1/C(=C/c2ccccc2)Sc2ccccc21,-0.31,0.5
CC1CN(c2ccc(N)cc2)CC(C)O1 (stereo not drawn),nt,-0.05
CC(C)CC(=O)N1c2ccccc2NC2=C(C(=O)CC(C)(C)C2)C1c1cccnc1 (stereo not drawn),-0.52,0.2
C=C(C)C1CCC(C)OC1c1ccc2c(c1)OCO2 (stereo not drawn),-0.105,-0.9
O=C(Nc1ccc(F)cc1F)c1cnccn1,-0.205,0.1
Cc1ccc(NC(=O)C(c2ccccc2)N(C)C)cc1Cl (stereo not drawn),nt,1.55
COc1cccc(C(=O)CN2C3=NCCN3c3ccccc32)c1,nt,-0.7
COC(=O)c1c(C)oc2cc(Br)c(OC)cc12,-1.44,-0.2
Cc1c(Cl)c(C)c(C2=NON3N(C(=O)c4ccc(C(=O)c5ccccc5)cc4)c4ccccc4N23)c(C)c1Cl,-0.15,nt
CC(=O)Nc1ccc(NC(=O)Cc2ccccc2)cc1,nt,1.1
Cc1ccc(Nc2cc(N(C)C)c3nonc3c2[N+](=O)[O-])cc1Cl,0.55,nt
Cc1cccc2c(=O)n(CCNCc3ccccc3)c(C)nc12,-0.145,-0.85
O=C(O)/C=C\C(=O)Nc1ccccc1C(=O)O,5.81,-0.55

# Profiles as entered above. Values in the order: CapD inh	AID504770
# Cc1ccc(NC(=O)C(c2ccccc2)N(C)C)cc1Cl (stereo not drawn) in the list: nt	1.55
# COC(=O)c1c(C)oc2cc(Br)c(OC)cc12 in the list: -1.44	-0.2
# O=C(O)/C=C\C(=O)Nc1ccccc1C(=O)O in the list: 5.81	-0.55
# CC1CN(c2ccc(N)cc2)CC(C)O1 (stereo not drawn) in the list: nt	-0.05
# COc1cccc(C(=O)CN2C3=NCCN3c3ccccc32)c1 in the list: nt	-0.7
